Screening data deposited in PubChem BioAssay by several laboratories.
RGS16-Gao: modulators of RGS16 binding to Galphao, primary screen, biochemical, human proteins, multiplexed bead flow cytometry; bead-based flow cytometry RGS16-Galphao binding, fluorescence; actives lie on both sides; binding response (% of control), % at 10 µM; hit rate 0.38% among 220,000;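 active = below 25% or above 175%, edge rows of some plates excepted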;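 note: Galphao activated by GDP with aluminum fluoride before binding; 100% = wells without compound and 0% = beads without RGS; some results beyond the cut were filed as inactive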
Target sequence (O15492 whole entry, looked up): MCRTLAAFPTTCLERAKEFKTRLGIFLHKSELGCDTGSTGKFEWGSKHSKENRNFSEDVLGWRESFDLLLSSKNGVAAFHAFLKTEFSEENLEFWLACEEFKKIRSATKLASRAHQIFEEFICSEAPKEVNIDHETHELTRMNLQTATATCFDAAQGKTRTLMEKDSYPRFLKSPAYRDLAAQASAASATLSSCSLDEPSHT
Target sequence (P09471 whole entry, looked up): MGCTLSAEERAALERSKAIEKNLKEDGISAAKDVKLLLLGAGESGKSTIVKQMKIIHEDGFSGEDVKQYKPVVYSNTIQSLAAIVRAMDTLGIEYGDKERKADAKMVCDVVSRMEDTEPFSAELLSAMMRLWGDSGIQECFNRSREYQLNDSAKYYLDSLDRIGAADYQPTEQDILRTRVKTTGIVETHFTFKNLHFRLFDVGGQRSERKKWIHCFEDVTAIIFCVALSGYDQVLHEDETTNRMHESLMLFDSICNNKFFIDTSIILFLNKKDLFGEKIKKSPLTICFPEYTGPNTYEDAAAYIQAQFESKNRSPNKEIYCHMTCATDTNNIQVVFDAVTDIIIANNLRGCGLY
GALR2 ag: GALR2 receptor agonists, primary screen, cell-based; GALR2-expressing cells, agonist activation read-out; hit rate 0.48% among 140,000; activation, %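 (tested at 5 µM)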;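 active = above mean plus 3 SD of all compounds, about 5% in these data, not always enough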;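 note: 0% = vehicle buffer wells and 100% = reference agonist at full effect; tested in CHO reporter cells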
Target sequence (O43603 whole entry, looked up): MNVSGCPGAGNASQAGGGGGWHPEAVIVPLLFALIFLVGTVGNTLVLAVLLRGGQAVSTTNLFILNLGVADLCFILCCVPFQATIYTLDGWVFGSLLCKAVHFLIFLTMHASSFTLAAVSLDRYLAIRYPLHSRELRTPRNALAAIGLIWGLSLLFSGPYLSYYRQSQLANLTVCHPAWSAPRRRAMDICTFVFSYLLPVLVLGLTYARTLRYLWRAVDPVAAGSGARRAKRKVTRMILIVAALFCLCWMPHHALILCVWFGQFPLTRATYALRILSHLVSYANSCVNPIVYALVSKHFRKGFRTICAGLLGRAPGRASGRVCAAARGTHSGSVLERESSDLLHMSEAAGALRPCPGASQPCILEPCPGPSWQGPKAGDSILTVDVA
PKD1 kinase inh: inhibitors of human PKD1 kinase, biochemical, fluorescence polarization | PKD1 kinase fluorescence polarization assay | AID 797, 2007 | inhibition, %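 (about 10 µM by stock and volumes)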 | hit rate 0.056% among 200,000 | Serine/threonine-protein kinase D1 (Homo sapiens), Q15139;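 active = inhibition of 50% or more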;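 note: controls were vehicle for no effect and a reference inhibitor for full effect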
INS promoter inh: inhibitors of insulin promoter-driven GFP, primary screen, imaging, TRM-6 cells (human fetal islet line), eGFP reporter, cell count | reporter expression induced with tamoxifen | inhibition, % at 2 µM | hit rate 0.9% among 130,000 | AID 1273, 2008;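 active = inhibition above the mean plus 3 SD, with well images judged a real hit on visual review, cut at about 60% in these data, passing the limit was not always enough; inconclusive = inhibition over the cutoff but images rejected on review; inactive = inhibition not above the cutoff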
HSV augment: enhancers of HSV replication in host cells, fold increase, host cell viability. hit rate 0.005% among 220,000. AID 1956, 2009. HSV replication augmentation in cells. maximum fold increase;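 active = peak rise of 1.5-fold or more in the series; inconclusive = self-fluorescent or not available for retest; tested in PC3 cells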;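 note: first round at 10 µM; read as green reporter fluorescence; hits show the peak of a series up to 25 µM; 1 = signal of infected wells without compound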
INS promoter inh cell count: second read-out of INS promoter inh, no call of its own (marks repeat the call); normalized cell count, %; measured here: cell count, toxicity; reference of the scale not given here;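 cells exposed to compound for 48 h; stained nuclei by imaging scaled within each plate; lower means fewer cells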
HSV augment primary fold: recorded beside HSV augment, whose call it bears; fold increase; compound at 10 µM; measured here: primary screen fold increase 10 uM; tested in PC3 cells;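 GFP signal in the first replicate; 1 = infected wells without compound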
Numbers without * were called inactive; i = inactive; ? = inconclusive; · = no result given.

SMILES	RGS16-Gao	GALR2 ag	PKD1 kinase inh	INS promoter inh	INS promoter inh cell count	HSV augment	HSV augment primary fold
O=C(Cn1c(=O)oc2cc(S(=O)(=O)N3CCCC3)ccc21)N1CCN(c2ccccn2)CC1	100.5	0.3	-20.5	·	·	i	0.94
NC(=O)COc1ccccc1/C=C1/SC(=O)N(CC(=O)N2CCc3ccccc3C2)C1=O	89.3	-0.8	-0.1	·	·	·	·
O=C(CSc1cccc[n+]1[O-])C12CC3CC(CC(C3)C1)C2	110.1	·	-4.6	33.3	148.2	i	1.02
Cc1ccc(S(=O)(=O)N2CCN(C(=O)c3nn(C(C)C)c(=O)c4ccccc34)CC2)cc1C	104.0	-2.0	1.8	33.3	36.5	i	1.13
Cn1c(SCC(=O)NNC(=O)Nc2ccccc2)nnc1-c1ccccc1	98.8	·	·	·	·	i	1.08
O=S(=O)(c1cccs1)N1CCN(c2ccc(O)cc2)CC1	113.1	·	·	·	·	i	0.75
O=C(NC(=S)Nc1ccc(Cc2ccncc2)cc1)c1ccc(F)cc1	94.5	·	1.3	·	·	i	0.93
COCCn1c(SCC(=O)Nc2ccc(S(=O)(=O)N3CCOCC3)cc2)nc2ccccc21	99.4	-0.8	-7.1	-15.4	126.1	i	0.97
Cn1ccnc1Sc1ccc(/C=N/NC(=O)c2ccccc2O)cc1[N+](=O)[O-]	80.2	-1.2	2.3	-6.7	96.5	i	0.85
O=C(c1ccc2c(c1)OCCO2)N1CCCC(CNS(=O)(=O)c2cccs2)C1 (stereo unspecified)	109.0	·	2.0	·	·	i	0.98
Cc1ccc(-n2nnnc2SCC(=O)NC(=O)Nc2ccc3c(c2)OCCO3)cc1	101.5	0.7	3.2	18.2	170.8	i	1.01
O=C(C1CCCO1)N1CCN(c2ncccn2)CC1 (stereo unspecified)	91.4	-2.5	-1.2	50.0	97.4	i	1.14
O=C(Nc1ccccc1-c1nc2ccccc2o1)c1ccc2c(c1)OCCO2	·	1.3	2.3	-25.3	94.1	·	·
CC(C)c1nc(SCC(=O)Nc2ccc(N(C)C)cc2)c2ccccc2n1	108.0	·	-12.2	·	·	i	0.85
O=C(CN1CCOCC1)N/N=C/c1ccc(-c2ccc(C(=O)O)cc2)o1	102.4	·	·	·	·	i	0.97
Cc1ccccc1NC(=O)C1(NC(=O)c2cccc(N3C(=O)CSC3c3ccccc3)c2)CCCCC1 (stereo unspecified)	-336.4	-0.1	-8.6	i	110.2	i	0.91
CCC(C)NC(=O)CSc1nc2ccccc2c(=O)n1CCCC(=O)NCC1CCCO1 (stereo unspecified)	99.3	-0.8	-3.9	22.2	64.9	i	0.79
Cc1cc(C)c2nc(SCC(=O)NNC(=O)c3ccco3)c(C)cc2c1	101.0	·	-3.1	·	·	i	0.97
CN(CCCC(=O)Nc1nccs1)S(=O)(=O)c1ccc(Cl)cc1	104.6	-0.4	-11.8	·	·	i	0.96
OCC1(CCCc2ccccc2)CCN(Cc2ccc(F)cc2)CC1	106.7	·	-4.3	·	·	i	0.93
C=CCNC(=O)c1ccc(Cl)cc1Cl	113.6	-1.9	-8.9	-13.3	120.0	i	0.91
COc1ccc(NS(=O)(=O)c2cc(NC(=O)CNC(=O)c3cccc(OC)c3)ccc2C)cc1	115.1	-1.9	-3.3	-7.7	111.4	i	0.71
CC(CCc1ccccc1)NC(=O)C(=O)NCCO (stereo unspecified)	101.3	-1.1	6.7	·	·	i	1.18
CN1CCN(C(=O)c2ccccc2-c2ccccc2C(=O)O)CC1	89.4	-2.3	-3.8	·	·	i	0.94
Nc1nc(CSCCO)nc(Nc2ccc(F)cc2)n1	112.3	-2.1	-2.2	-53.9	57.8	i	1.06
SMILES	RGS16-Gao	GALR2 ag	PKD1 kinase inh	INS promoter inh	INS promoter inh cell count	HSV augment	HSV augment primary fold
CSc1nc(N2CCOCC2)c2c3c(sc2n1)CCC3	59.2	-4.0	-8.1	30.8	116.8	i	0.86
COc1ccc(N2CCN(CC(=O)c3c[nH]c4ccccc34)CC2)cc1	106.1	·	·	·	·	i	1.13
COc1ccc(N2CCN(C(=O)C3CCCN(S(=O)(=O)c4c(C)noc4C)C3)CC2)cc1 (stereo unspecified)	101.6	·	·	·	·	i	1
COc1ccc(-c2nc3n(c2C)Cc2ccccc2-3)cc1	98.8	·	·	·	·	i	0.91
CCOc1ccc(NS(=O)(=O)c2ccc(NS(=O)(=O)c3ccccc3)cc2)cc1	103.2	-1.5	-5.7	-46.7	139.6	i	1
CCn1c(-c2cc(Cl)ccc2OC)n[nH]c1=S	95.7	-2.2	-2.2	13.9	71.7	i	1
CC(C)CCn1c(CN2CCN(C(=O)c3ccco3)CC2)nc2c1c(=O)n(C)c(=O)n2C	96.9	-2.0	-6.5	·	·	i	0.8
COc1ccc(NC(=O)/C(C#N)=C/c2ccc(Br)o2)cc1	85.2	-3.0	2.8	37.0	143.2	i	1.19
COC(=O)c1c(NC(=O)CSc2nc(-c3ccco3)cc(C(F)(F)F)n2)sc2c1CCCC2	113.0	-3.9	0.1	56.2	94.8	i	1.02
Cc1cc(-c2nnc3sc(-c4ccc(Cl)cc4Cl)nn23)n[nH]1	99.3	-0.6	15.2	·	·	i	0.79
Cc1cc(NC(=O)c2ccc(F)cc2)n(-c2ccccn2)n1	107.1	·	-1.5	-94.4	96.7	i	1.11
COCc1nnc(SCC(=O)NC(C)c2ccccc2)n1-c1ccccc1 (stereo unspecified)	104.7	-1.6	-6.2	-143.8	88.9	i	0.92
CCCCSCc1[nH]c(=O)[nH]c1C(=O)CCCCC(=O)OCC	48.2	-2.8	-17.6	·	·	i	0.93
Nc1cc(S(=O)(=O)c2ccc(O)c(N)c2)ccc1O	104.8	·	·	·	·	i	0.98
CC1(C)Cc2cccc(OCC(=O)Nc3ccccc3N3CCOCC3)c2O1	96.9	-1.6	-2.5	30.8	74.6	i	0.86
C/C(Cl)=C\Cn1c(Nc2ccccc2)nc2c1c(=O)n(C)c(=O)n2C	103.6	-1.5	-1.4	0.0	117.1	i	0.93
COc1ccc(N2CCN(C(=O)Cn3nnc(-c4ccc(N(C)C)cc4)n3)CC2)cc1	113.6	·	-5.3	-14.3	80.8	i	0.98
Cc1ccc(N2C(=O)c3n[nH]c(C)c3C2c2cccnc2)cc1 (stereo unspecified)	100.1	-0.5	3.4	-7.1	123.1	i	1.01
Cc1ccc([N+](=O)[O-])cc1S(=O)(=O)NCCc1c(C)[nH]c2c(C)cccc12	96.2	-1.8	-9.4	-44.4	98.8	i	0.77
Cc1ccc(N2CC(C(=O)Nc3nnc(C)s3)CC2=O)cc1 (stereo unspecified)	98.9	-2.1	1.8	-37.6	90.2	i	1.06
O=C(NC1CCCCC1)C(Cc1ccccc1)NS(=O)(=O)c1cccs1 (stereo unspecified)	97.8	-0.2	9.6	-74.2	75.5	i	0.62
CCCCN(Cc1cc2cccc(C)c2[nH]c1=O)S(C)(=O)=O	92.5	·	·	·	·	i	1.19
CCCc1cc(C(=O)OC)c(NC(=O)CCCC(=O)O)s1	108.2	·	3.1	-33.3	83.6	i	0.93
CCOC(=O)C1CCN(C(=O)NC23CC4CC(CC(C4)C2)C3)CC1	102.1	-2.4	-4.0	-60.0	87.3	i	1.14
CCOC(=O)CSc1nnc(SCCN2C(=O)c3ccccc3C2=O)s1	97.9	-1.2	-2.4	-14.3	102.8	·	·

Ordered by value in PKD1 kinase inh (rising): 3 from the list above.
| SMILES | RGS16-Gao | GALR2 ag | PKD1 kinase inh | HSV augment primary fold |
| --- | --- | --- | --- | --- |
| CCOc1ccc(NS(=O)(=O)c2ccc(NS(=O)(=O)c3ccccc3)cc2)cc1 | 103.2 | -1.5 | -5.7 | 1 |
| CC1(C)Cc2cccc(OCC(=O)Nc3ccccc3N3CCOCC3)c2O1 | 96.9 | -1.6 | -2.5 | 0.86 |
| Cc1ccc(N2CC(C(=O)Nc3nnc(C)s3)CC2=O)cc1 (stereo unspecified) | 98.9 | -2.1 | 1.8 | 1.06 |

Next section:
SMILES	RGS16-Gao	GALR2 ag	PKD1 kinase inh	INS promoter inh	INS promoter inh cell count	HSV augment	HSV augment primary fold
O=C(O)c1ccccc1NCN1C(=O)C2CC=C(Cl)CC2C1=O (stereo unspecified)	107.1	-1.7	0.8	·	·	i	0.82
Cc1ccc(Nc2nc(-c3ccc(S(=O)(=O)N4CCCC4)cc3)cs2)cc1C	97.6	0.2	7.1	·	·	i	0.82
O=C(Nc1nnc(CC2=CCCCC2)s1)Nc1ccccc1F	107.6	·	·	·	·	i	0.83
Cn1c(=O)c(C(=O)Nc2ncccn2)c(O)c2ccccc21	102.5	-2.5	8.8	43.5	108.5	i	0.96
COCCN(Cc1cc2cccc(C)c2n2nnnc12)C(=O)C(F)(F)F	108.4	-1.2	-2.8	·	·	i	0.95
CCc1nnc(/N=C/c2c(O)n(-c3ccc(Cl)cn3)c(=O)c3ccccc23)s1	108.7	-2.2	-8.8	7.1	67.2	i	1.04
COC(=O)CCC(=O)OC1(C)C(=O)C=C2C=C(C3CC3)N(CC3CC3)C=C2C1=O (stereo unspecified)	100.3	·	·	·	·	i	0.93
Cc1ccc(O)c(Sc2cc(C)ccc2O)c1	103.9	-0.8	-1.7	67.4	132.4	i	0.87
CCOC(=O)c1cc(S(=O)(=O)NC2CCN(C(=O)OCC)CC2)cn1C	100.3	-2.0	-10.7	·	·	i	0.93
CCN(CCN(C)C)C(=O)Cn1ncc2c1-c1cc(C)ccc1OC2	105.5	-1.7	2.8	·	·	i	0.98
CCC(=O)c1c(NC)cc(C)oc1=O	102.0	·	4.5	·	·	i	0.88
CCOC(=O)N1CCN(Cc2nc(N)nc(Nc3ccc(C)cc3C)n2)CC1	108.7	·	-1.8	20.0	108.1	i	1.04
CC(C)CCNC(=O)C1CCCCN1S(=O)(=O)c1ccc(F)cc1 (stereo unspecified)	106.1	0.2	-3.9	-53.6	129.6	i	0.93
CC(C)(C)NC(=O)/C(=C/c1ccco1)c1ccccc1	109.7	-2.5	5.6	-33.3	113.1	i	0.95
OCCN(CC(O)Cn1ccc2ccccc21)CC(O)Cn1ccc2ccccc21 (stereo unspecified)	102.1	-2.4	2.4	-71.4	99.0	·	·
COc1ccc(CCNC(=O)c2ccc(Cl)cc2Cl)cc1OC	108.7	·	3.6	·	·	i	0.86
CC(C)(C)C(=O)O/N=C(\N)Cc1ccc(-c2csnn2)cc1	96.2	·	·	·	·	i	0.91
COc1ccccc1-c1nc(-c2cccc(C)c2)no1	100.9	-3.5	-2.3	24.1	111.1	i	1.05
N#Cc1c(C(F)(F)F)cc(-c2ccco2)nc1SCc1ccncc1	101.4	1.5	-4.6	·	·	?	·
Cc1ccc(/C(O)=C2\C(=O)C(=O)N(CC(C)O)C2c2cccc(F)c2)cc1 (stereo unspecified)	112.6	-1.2	-8.7	·	·	i	0.75
Cc1nc(S(=O)(=O)Nc2ccc3c(c2)OCCO3)cn1C	94.2	·	·	·	·	i	0.99
COc1cc(-c2nc3cnccn3c2Nc2ccc3c(c2)OCCO3)ccc1O	95.2	0.1	-14.6	25.8	105.8	i	0.85

Compounds listed so far that have two or more sulfur atoms:
SMILES	RGS16-Gao	GALR2 ag	PKD1 kinase inh	INS promoter inh	INS promoter inh cell count	HSV augment	HSV augment primary fold
O=S(=O)(c1cccs1)N1CCN(c2ccc(O)cc2)CC1	113.1	·	·	·	·	i	0.75
COCCn1c(SCC(=O)Nc2ccc(S(=O)(=O)N3CCOCC3)cc2)nc2ccccc21	99.4	-0.8	-7.1	-15.4	126.1	i	0.97
O=C(c1ccc2c(c1)OCCO2)N1CCCC(CNS(=O)(=O)c2cccs2)C1 (stereo unspecified)	109.0	·	2.0	·	·	i	0.98
CN(CCCC(=O)Nc1nccs1)S(=O)(=O)c1ccc(Cl)cc1	104.6	-0.4	-11.8	·	·	i	0.96
CSc1nc(N2CCOCC2)c2c3c(sc2n1)CCC3	59.2	-4.0	-8.1	30.8	116.8	i	0.86
CCOc1ccc(NS(=O)(=O)c2ccc(NS(=O)(=O)c3ccccc3)cc2)cc1	103.2	-1.5	-5.7	-46.7	139.6	i	1
COC(=O)c1c(NC(=O)CSc2nc(-c3ccco3)cc(C(F)(F)F)n2)sc2c1CCCC2	113.0	-3.9	0.1	56.2	94.8	i	1.02
O=C(NC1CCCCC1)C(Cc1ccccc1)NS(=O)(=O)c1cccs1 (stereo unspecified)	97.8	-0.2	9.6	-74.2	75.5	i	0.62
CCOC(=O)CSc1nnc(SCCN2C(=O)c3ccccc3C2=O)s1	97.9	-1.2	-2.4	-14.3	102.8	·	·
Cc1ccc(Nc2nc(-c3ccc(S(=O)(=O)N4CCCC4)cc3)cs2)cc1C	97.6	0.2	7.1	·	·	i	0.82

Hits appear at their usual frequency, and some 1.3% of all compounds hit somewhere here.
